# High-throughput results from PubChem.
# Arbovirus inh: blocks arbovirus infection; 200,000 tested, 0.37% active; inhibition, % at 10 µM; arbovirus infection cell-based antiviral screen;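 active = inhibition from about 30%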;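 note: bluetongue infection of BSR cells; cell survival read as ATP light after 72 h; 0% = infected wells without compound and 100% = uninfected wells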
# Mtb growth: M. tuberculosis H37Rv growth inhibitors, H37Rv strain (AID 1626). 220,000 tested, 0.95% active. M. tuberculosis H37Rv growth inhibition; higher % means a stronger effect. one-dose inhibition, % at 10 µM; IC50 in µM for titrated hits;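 active = confirmed in a dose series; inconclusive = inhibition above 80% but not taken into the dose series; inactive = below 80% or under 30% at every dose of the series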;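 note: bacteria incubated seven days before Alamar blue readout; 0% = bacteria only wells and 100% = bacteria with antibiotic wells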
# RecA intein inh: inhibitors of M. tuberculosis RecA intein splicing | cell-free RecA intein splicing, fluorescence | inhibition, %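 (about 9 µM by stock and volumes)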 | 290,000 tested, 0.75% active; in the data active = inhibition above about 30%; inconclusive = no clear call, values can overlap the other calls;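 note: 0% = vehicle wells and 100% = reference inhibitor control wells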
# Target sequence (P9WHJ3 whole entry, looked up): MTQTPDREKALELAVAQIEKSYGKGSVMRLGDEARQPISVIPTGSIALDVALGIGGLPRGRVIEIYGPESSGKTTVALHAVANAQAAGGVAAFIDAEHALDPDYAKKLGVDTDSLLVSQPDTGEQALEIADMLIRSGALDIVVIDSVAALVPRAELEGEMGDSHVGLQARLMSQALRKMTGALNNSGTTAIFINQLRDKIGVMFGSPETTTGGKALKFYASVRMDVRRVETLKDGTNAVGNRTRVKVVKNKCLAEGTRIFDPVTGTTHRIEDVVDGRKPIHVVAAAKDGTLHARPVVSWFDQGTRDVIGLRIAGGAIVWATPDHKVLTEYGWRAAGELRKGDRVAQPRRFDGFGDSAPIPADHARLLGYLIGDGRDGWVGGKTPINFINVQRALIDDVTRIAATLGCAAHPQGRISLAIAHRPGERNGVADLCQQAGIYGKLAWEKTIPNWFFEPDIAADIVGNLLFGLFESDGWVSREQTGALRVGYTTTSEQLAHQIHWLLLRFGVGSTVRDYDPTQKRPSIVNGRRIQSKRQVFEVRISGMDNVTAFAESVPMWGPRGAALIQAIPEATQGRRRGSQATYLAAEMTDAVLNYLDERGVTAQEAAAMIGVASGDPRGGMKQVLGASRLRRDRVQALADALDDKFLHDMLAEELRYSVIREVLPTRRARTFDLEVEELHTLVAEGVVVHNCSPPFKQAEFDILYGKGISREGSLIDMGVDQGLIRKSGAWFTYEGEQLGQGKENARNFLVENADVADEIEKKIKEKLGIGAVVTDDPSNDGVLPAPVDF
# Mtb bLac sens: beta-lactam sensitization of Mtb H37Rv; M. tuberculosis H37Rv growth with meropenem, percent inhibition; hits of this screen are not shown here; inhibition, % at 25 µM; 330,000 tested, 0.27% active;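 active = about 74% or more and at least 40 points above the plate without the antibiotic, then above 30% in a dose series; inconclusive = first-round hits that could not be retested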;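 note: growth measured after seven days incubation then overnight dye step; 0% = bacteria only wells and 100% = bacteria with antibiotic; twin plates without the antibiotic show which effects depend on it; some results filed as inactive read as strong as hits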
# YopH inh: YopH (Yersinia) phosphatase inhibition | AID 898 | inhibition, %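 (about 10 µM by stock and volumes)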 | fluorescence Ex485/Em525 | 140,000 tested, 0.16% active;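 active = inhibition of 50% or more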;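 note: controls were vehicle for no effect and minimum signal wells for full effect; inactives centre near -20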
# Arbovirus inh repeat: recorded beside Arbovirus inh, whose call it bears; inhibition, %; measured here: 10K subset replicate screen; many hits read low in the repeat;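 first of two repeat runs on a subset; 0% = infected and 100% = uninfected wells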
# Starred values were filed as active, the others as inactive; ? = inconclusive; · = not tested or not shown.
SMILES,Arbovirus inh,Mtb growth,RecA intein inh,Mtb bLac sens,YopH inh,others
Cc1noc(/C=C/N(C)C)c1S(=O)(=O)N(C)CC(=O)NC1CCCCC1,10,·,0.5,-1,-28,
c1ccc2oc(-c3ccc(Nc4nc(N5CCCCC5)nc(N5CCOCC5)n4)cc3)nc2c1,4,·,5.1,-1,-111,
CCOc1ccc(C(=O)Nc2nnn(CC)n2)cc1,5,-4%,1.5,-4,-6,
CC(C)(C)N(Cc1ccccc1)C(=O)COC(=O)CN1C(=O)C2CC=CCC2C1=O (centres undefined),·,·,-0.8,-13,·,
CCOC(=O)C1=C(C)NC(=O)CC1c1cc2c(cc1[N+](=O)[O-])OCO2 (centres undefined),1,-4%,-9.6,-3,·,
COc1ccc(C)cc1NC(=O)c1ccc(CN2CCN(c3ccccc3)CC2)cc1,-28,14%,7.2,37,-21,
CCOC(=O)COc1nc(Nc2ccccc2C)nc(N(C)C)n1,-4,7%,1.0,13,-36,
COC(=O)c1ccc(COc2ccc(/C=N/N3CCN(C)CC3)cc2)cc1,-16,6%,1.0,4,·,
Cc1ccc(F)c(NC(=O)c2ccc(Cn3cc(Cl)cn3)cc2)c1,-23,26%,1.6,76,·,
CC12CCC(C/C1=N/OC(=O)c1cccc([N+](=O)[O-])c1)C2(C)C (centres undefined),0,2%,5.3,8,·,
COc1ccc(NS(=O)(=O)c2ccc(NS(=O)(=O)c3ccc(C)cc3)cc2)nn1,11,-7%,8.0,13,-39,Arbovirus inh repeat=7
COc1ccc(C(=O)C[n+]2ccc3c(c2)nc(-c2cc(OC)c(OC)cc2OC)n3C)cc1,3,?,·,100,-5,
O=C(NCCN1CCCCC1)Nc1ccccc1,5,-4%,0.3,10,1,
CCN(CC)c1ccc(/C=C2\SC(=O)N(C(C)C)C2=O)o1,·,?,-1.1,100,·,
CCCCc1ccc(NC(=O)N[C@@H](CC(C)C)C(=O)O)cc1,·,5%,-0.6,1,·,
CC1=CC(C)(C)Nc2ccc(OC(=O)CN3C(=O)C4CCCCC4C3=O)cc21 (centres undefined),-40,6%,-3.6,8,9,
COc1ccccc1NC(=O)c1cc2cc(Br)ccc2oc1=N,·,·,1.0,85,·,
CCN(CC)S(=O)(=O)c1cccc(NC(=O)c2cc(=O)[nH]c3ccccc23)c1,-5,5%,-1.0,-7,-25,
Cc1ccc(S(=O)(=O)n2nnc3ccccc32)c(C)c1C,4,0%,-1.7,-2,·,
Cc1cc(Nc2ccccc2)n(C(=O)c2ccc(Cl)cc2)n1,-3,-1%,5.4,2,-13,
COc1ccc(C(=O)N2CCN(Cc3cc(OC)ccc3OC)CC2)cc1,·,·,-0.1,3,·,
N/C(=N\OC(=O)c1ccccc1)c1cccnc1,3,-4%,-1.3,1,·,
O=C(c1ccc(CN2CCc3ccccc3C2)cc1)N1CCCCC1,-1,-6%,1.6,18,-10,Arbovirus inh repeat=4
O=C(NCc1cccs1)c1cc2ccccc2o1,-6,18%,-3.8,-3,7,
COc1ccc(C2c3ccc4ccccc4c3Oc3ncn(CCCO)c(=N)c32)cc1OC (centres undefined),·,9%,·,-2,·,

# 6 records picked at random from the list so far, as already listed:
SMILES,Arbovirus inh,Mtb growth,RecA intein inh,Mtb bLac sens,YopH inh,others
CCN(CC)S(=O)(=O)c1cccc(NC(=O)c2cc(=O)[nH]c3ccccc23)c1,-5,5%,-1.0,-7,-25,
O=C(NCc1cccs1)c1cc2ccccc2o1,-6,18%,-3.8,-3,7,
c1ccc2oc(-c3ccc(Nc4nc(N5CCCCC5)nc(N5CCOCC5)n4)cc3)nc2c1,4,·,5.1,-1,-111,
COc1ccc(NS(=O)(=O)c2ccc(NS(=O)(=O)c3ccc(C)cc3)cc2)nn1,11,-7%,8.0,13,-39,Arbovirus inh repeat=7
Cc1ccc(F)c(NC(=O)c2ccc(Cn3cc(Cl)cn3)cc2)c1,-23,26%,1.6,76,·,
CCN(CC)c1ccc(/C=C2\SC(=O)N(C(C)C)C2=O)o1,·,?,-1.1,100,·,

# For convenience, three of the compounds above:
SMILES,Arbovirus inh,Mtb growth,RecA intein inh,Mtb bLac sens,YopH inh,others
O=C(c1ccc(CN2CCc3ccccc3C2)cc1)N1CCCCC1,-1,-6%,1.6,18,-10,Arbovirus inh repeat=4
O=C(NCc1cccs1)c1cc2ccccc2o1,-6,18%,-3.8,-3,7,
COc1ccc(C2c3ccc4ccccc4c3Oc3ncn(CCCO)c(=N)c32)cc1OC (centres undefined),·,9%,·,-2,·,

# Remaining list, next part:
SMILES,Arbovirus inh,Mtb growth,RecA intein inh,Mtb bLac sens,YopH inh,others
CC(=O)N=C1C=CC(=CN(O)C(C)(C)Cc2ccccc2)C=C1,·,·,-2.1,-7,·,
CCOC(=O)[C@@H]1[C@H]2COc3cc(OC)ccc3[C@@H]2N2C(=O)N(c3ccc(Cl)cc3)C(=O)[C@@]12C,·,·,0.6,0,·,
CCCc1cc(=O)oc2cc(C)cc(OC(C)C(=O)NCC(O)c3ccccc3)c12 (centres undefined),·,·,-0.2,3,·,
CC1=C(C(=O)c2ccccc2)C(c2cn(-c3ccccc3)nc2-c2ccc(Cl)cc2)NC(=S)N1 (centres undefined),-4,?,12,97,-9,
COc1ccc(C2CN=NC23CCCc2ccccc2C3=O)cc1 (centres undefined),-18,-4%,1.2,-2,-23,
COc1ccc(C(=O)Nc2cc3c(cc2C#N)OCO3)cc1S(=O)(=O)NCc1ccco1,-2,-3%,-0.6,-7,-18,
COc1ccc(CNCCCSc2ncccn2)c(OC)c1,·,·,-1.7,3,·,
CC(C)Oc1ccc(C(=O)N2CCN(C(=O)c3ccco3)CC2)cc1,·,·,-0.5,-7,·,
Cc1nc2nc(C)c(NS(=O)(=O)c3ccc(CC(C)C)cc3)c(=O)n2[nH]1,·,·,0.4,-1,·,
COC(=O)C1CCN(C(=O)/C=C/c2ccc(OC)cc2)CC1,-3,-8%,-1.9,-4,-27,
COC(=O)[C@@H](Cc1ccccc1)NC(=O)NCCc1c[nH]c2ccccc12,·,·,0.9,77,·,
CCCn1c(CCc2ccccc2)nnc1SCC(=O)N1CCCC1,5,1%,0.2,-11,-7,
CCOC(=O)c1ccc(-c2nnc(-c3ccc(Cl)cc3Cl)o2)cc1,-35,56%,2.9,89,-44,
CCOc1cccc(/C=N/N2CCN(c3ccc(Cl)cc3)CC2)c1O,·,·,2.7,2,·,
CCOC(=O)N1CCC(N2C(=O)c3ccc(C(=O)Nc4ccc(OC)c(OC)c4)cc3C2=O)CC1,·,·,2.6,0,·,
CN(Cc1cc([N+](=O)[O-])ccc1Cl)C(=O)C[n+]1ccccc1,·,·,-0.6,5,·,
COc1cccc(NC(=O)CNS(=O)(=O)c2ccc3nc(C)sc3c2)c1,-2,·,-0.2,-11,-36,
c1ccc(CCN2CCC3(CC2)OCCO3)cc1,·,·,1.4,-3,·,
O=S(=O)(Nn1cnnc1)c1ccc2ccccc2c1,4,-3%,0.5,-5,·,
Cc1ccc(-c2nc(Cl)nc3ccccc23)cc1,-3,-2%,3.3,0,·,
CC1CCCC(=C\c2ccccc2)/C1=N/O (centres undefined),2,3%,-0.1,3,-8,
CC(=O)c1c(C(C)=O)c(C)n(NC(=O)c2ccc(Cl)cc2)c1C,-4,-8%,-2.7,-3,-23,
CCC(C)c1ccccc1NC(=O)COC(=O)c1ccc2[nH]c3c(c2c1)CCCC3 (centres undefined),-4,-1%,0.8,-2,-32,
CC(=O)NS(=O)(=O)c1ccc(N=NN2CCOCC2)cc1,4,1%,12,3,-16,
CC1CN(C(=O)c2ccccc2Oc2ccccc2)CC(C)O1 (centres undefined),-4,-2%,0.8,-6,·,

# (further entries)
SMILES,Arbovirus inh,Mtb growth,RecA intein inh,Mtb bLac sens,YopH inh,others
CCCCSc1nsc(NC(C)=O)n1,-9,-2%,-2.3,-1,-21,
Cc1n[nH]c(C)c1CCOc1ccc(C(C)C)cc1,4,-3%,-4.9,83,9,
CCOC(=O)CCCn1c(C)nc(=O)c(-c2ccccc2)c1C,4,-9%,0.2,-5,-4,
Brc1c(NC2=NCCN2)ccc2nccnc12,2,·,1.0,·,-14,
Cc1cc(OC(C)C(=O)NCC(O)c2ccccc2)c2c3c(c(=O)oc2c1)CCCC3 (centres undefined),·,·,2.1,-4,·,
S=C(Nc1ccc2c(c1)OCO2)NC1CCN(Cc2ccccc2)CC1,-12,-1%,-2.2,1,-21,
CC(/C=N\NC(=O)c1cccnc1)c1ccccc1 (centres undefined),·,-8%,0.3,2,13,
CC(/C=C/C=C/c1ccccc1)=N/NC(=O)CNc1ccc(C)cc1,7,-3%,4.1,12,-6,
CSCC[C@H](NC(=O)C1CCN(S(=O)(=O)c2ccc(C)cc2)CC1)C(=O)NCc1ccco1,-10,-10%,2.2,0,7,
Cc1ccc(C)c(NS(=O)(=O)c2c(C)nc3sccn3c2=O)c1,·,·,2.4,2,·,
CCCS(=O)(=O)NCCc1cc2ccc(C)cc2[nH]c1=O,1,3%,0.0,-1,-4,
O=C(/C=C/c1ccc(O)cc1)c1ccc(NC2=C(N3CCCCC3)C(=O)c3ccccc3C2=O)cc1,-7,?,57*,96,93*,
CCN(c1cccc(C)c1)S(=O)(=O)c1ccc(-c2ccc(=O)[nH]n2)o1,·,·,-8.7,7,·,
Cc1ccc(C)c(-n2c(Cc3cc(=O)[nH]c(=O)[nH]3)nnc2SCC(=O)NCC2CCCO2)c1 (centres undefined),-2,-14%,·,-2,-38,
CC(C)(C)C(=O)NCCn1ccc2ccccc21,11,3%,-4.5,0,-29,
N=c1sccn1CC(=O)Nc1ccccc1Oc1ccccc1,-3,-14%,3.9,-5,-20,
Cc1sc2ncnc(OCC(=O)NCc3cccs3)c2c1C,-2,4%,-1.6,-13,-32,
CN(C)CCC=C1c2ccccc2CCc2ccccc21,-7,·,0.5,1,-8,
C=CCn1c(SCC(=O)NC2(C#N)CCCCC2)nnc1-c1ccncc1,·,·,-0.8,-2,·,
O=C(O)CCC(=O)Nc1nnc(C(F)(F)F)s1,14,8%,·,5,-10,
COc1cc(-c2cn[nH]c2N)cc(OC)c1OC,-4,-5%,6.4,-14,0,
Cc1ccccc1NC(=O)CSc1[nH]c(=O)cc(C)c1C#N,5,-9%,-0.7,-3,-50,Arbovirus inh repeat=9
COc1ccc2ccccc2c1/C=N/NC(=O)c1nnn(-c2nonc2N)c1C(C)C,·,·,0.9,2,·,
O=C1c2ccccc2C(=O)C12OC2c1cccc2ccccc12 (centres undefined),-17,-3%,7.5,5,99*,
c1cc2c3c(cccc3c1)NC1(CCC3(CC1)Nc1cccc4cccc(c14)N3)N2,·,43%,-9.8,94,·,

# (next part)
SMILES,Arbovirus inh,Mtb growth,RecA intein inh,Mtb bLac sens,YopH inh,others
O=C1c2cccc3cccc(c23)C(=O)N1Cc1cccnc1,·,-2%,-2.4,-8,·,
O=C1CC(N2CCOCC2)C(=O)N1Cc1ccc(N2CCCC2=O)cc1 (centres undefined),6,5%,-1.0,-14,-28,
CCOC(=O)N1CCN(C(=O)c2cc(C)c3c(C)nn(-c4ccccc4)c3n2)CC1,9,3%,-1.5,-4,26,
Cc1ccc(-c2noc(CNS(=O)(=O)c3ccccc3)n2)cc1,·,·,3.5,?,·,
O=C(NCc1ccccc1Cl)c1cccc(C(F)(F)F)c1,17,18%,0.4,6,-16,
CCOc1ccc(N2C(=O)NC(=O)/C(=C\c3ccc(N4CCOCC4)cc3C)C2=O)cc1,2,5%,·,-1,·,
CN(C)S(=O)(=O)c1ccc(/C(O)=C2/C(=O)C(=O)N(CCCN3CCOCC3)C2c2ccncc2)cc1 (centres undefined),·,·,-1.5,0,·,
COc1ccc(Br)cc1CNC(=O)C1CCCN(S(C)(=O)=O)C1 (centres undefined),5,-14%,0.4,0,-43,
COc1cccc(C(=O)Nc2nnc(-c3ccccc3)s2)c1OC,·,·,-0.7,6,·,
CSCC[C@H](NC(=O)C1CCCC1)c1nc2ccccc2[nH]1,-5,-2%,1.8,0,·,
Cc1ccc(C(C)(C)C)cc1S(=O)(=O)NC(=O)c1ccccc1,9,-5%,1.3,1,·,
Cc1c(C(=O)N2CC(C)OC(C)C2)sc2nc(-c3ccc(F)cc3)cn12 (centres undefined),5,·,-0.8,-12,1,
CC1CCN(C(=O)COC(=O)[C@H](C)NS(=O)(=O)/C=C/c2ccccc2)CC1,1,-2%,0.0,4,7,
COc1ccccc1NC(=O)C(=O)NCC1COc2ccccc2O1 (centres undefined),1,-9%,-0.8,-4,-21,
CC1=CC2=NC(=O)/C(=C\c3ccc(OC(=O)c4ccco4)cc3)C(=N)N2O1,8,7%,7.3,100,·,
CCOc1cc(-n2nc(C)c(C#N)c2N)nc(SC)n1,-13,2%,0.9,·,-4,
CC(C)NC(=O)CC(c1ccccc1)c1cc(Br)ccc1O (centres undefined),1,6%,6.6,-3,1,
Cc1cc(N2CCN(C(=O)c3ccco3)CC2)n2nc(-c3cccc(Cl)c3)cc2n1,10,7%,1.5,1,-35,
CCCCCCC(=O)N(O)C1CC(=O)N(c2ccc(C)cc2)C1=O (centres undefined),5,5%,1.1,14,13,

# These rows are one share of the data, so the mix of outcomes need not match the whole.
